HPGD inh – blocks human HPGD enzyme activity; P15428; purified HPGD, NADH fluorescence kinetic, PGE2 substrate; Potency, µM, inactives show at the highest dose activity change, negative = inhibition, hits mostly inhibitors; 4.3% of 150,000 active; active = well fitted inhibition curve with a large enough effect (not every such curve was filed as active); inconclusive = small, poorly fitted or top-dose-only effect, or another doubt; inactive = no such curve, though single readings can be large or run the other way;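 also: top concentration of the series not given in the record; plate controls included wells without enzyme; inactives centre near -10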
Target sequence (P15428 whole entry, looked up): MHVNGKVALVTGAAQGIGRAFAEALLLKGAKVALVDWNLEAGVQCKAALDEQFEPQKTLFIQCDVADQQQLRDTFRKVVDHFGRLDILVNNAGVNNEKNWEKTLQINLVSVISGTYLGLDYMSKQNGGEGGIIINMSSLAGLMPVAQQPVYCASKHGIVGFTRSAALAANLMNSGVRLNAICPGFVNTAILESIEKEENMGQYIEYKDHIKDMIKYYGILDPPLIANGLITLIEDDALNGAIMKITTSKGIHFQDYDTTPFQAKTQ
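NADH formation kinetics: reaction with 30 uM PGE2 and 1 mM NAD+ (final), 20 nM enzyme, Tris-HCl pH 8 with Tween 20, after 15 min compound preincubation at room temperature. Fluorescence change, last versus first of five reads.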
* = called active by the depositor; ? = inconclusive; & = joins results of further samples; [ ] = dose if it differs, or a comment. % is scaled to controls: 0 for no effect and ±100 for the full control effect; potency is read from the fitted curve at half-maximal effect.

HPGD inh	Compound
-7%	CCCS(=O)(=O)N1CCC(C(=O)N2CCCC2)CC1
-21%	Nc1ccc(-c2cc(N)n(-c3ccccc3)n2)cc1
-7%	Cn1c(CN2CCCCC2)nc2cc(NC(=O)c3ccccc3)ccc21
-4%	CCOc1ccc(NC(=O)CCCOc2cc(=O)n(C)c3ccccc23)cc1
-17%	CC(C)NC(=O)c1ccccc1NC(=O)C1COc2ccccc2O1 (centres undefined)
28µM*	O=c1c(O)c(-c2ccc(O)c(O)c2)oc2c(OC3OC(CO)C(O)C(O)C3O)c(O)cc(O)c12 (centres undefined)
-8%	COC(=O)c1c(C)[nH]c(C(=O)OCC(=O)N2c3ccccc3NC(=O)C2(C)C)c1C
-13%	COc1ccc(NC(=O)C2=C(C)NC(=O)NC2c2cccc(OC)c2OC)c(OC)c1 (centres undefined)
-14%	CN(C)S(=O)(=O)c1cccc(C(=O)Nc2cc(Cl)cc(Cl)c2)c1
-28%	Cc1ccc(-c2nnc3sc(C4COc5ccccc5O4)nn23)cc1 (centres undefined)
?	Fc1ccc2nc(Nc3nc4cc5c(cc4s3)OCCO5)sc2c1
-23%	O=C1N=C(N2CCOCC2)S/C1=C\c1ccc(-c2ccccc2Cl)o1
-14%	COc1cccc(-c2nnc(SC(C(=O)c3c[nH]c4ccccc34)c3ccccc3)n2C)c1 (centres undefined)
-6%	CC(=O)c1ccc(N2CCN(C(=O)COc3ccccc3F)CC2)c(F)c1
-8%	Cc1cc(C)c2nc(C(F)(F)F)nc(NCCCN3CCCC3=O)c2c1
?	O=C(N/N=C/c1ccc(N2CCOCC2)o1)c1cccc(C(F)(F)F)c1
?	CCCCn1cnc2cc(NCc3ccncc3)ccc21
-6%	CCOC(=O)Cc1nnc(NC(=O)CSc2nncn2C)s1
-8%	Cc1cc(NS(=O)(=O)c2ccc(NC(=O)CSc3nnc(-c4ccco4)n3Cc3ccco3)cc2)nc(C)n1
-10%	CC(=O)Nc1ccccc1OC(C)C(=O)NC(C)c1ccc(F)cc1 (centres undefined)
?	Cc1ccc(C)n1NC(=O)c1ccccc1O
-6%	C=C(C)CSc1nc(C)c(Cc2ccccc2)c(=O)[nH]1
-11%	COC(=O)c1ccc(CSc2nc(N)cc(N)n2)cc1
-23%	CCS(=O)(=O)NCCCc1ccccc1
-9%	Cc1cc(C)c(S(=O)(=O)N2CCCC(C(=O)NCCC3=CCCCC3)C2)c(C)c1 (centres undefined)
-7%	O=c1[nH]c(=O)c2nc(Br)n(C3OC(CO)C(O)C3O)c2[nH]1 (centres undefined)
?	CC(C)C1N=C2c3ccccc3N=C(SCC#N)N2C1=O (centres undefined)
-12%	O=C1c2ccccc2NC(c2ccc(Cl)cc2Cl)N1O (centres undefined)
16µM*	COc1cccc(NC(=O)CSc2nc3c(oc4ccccc43)c(=O)[nH]2)c1
-10%	CC1CCN(c2ccc(C(=O)N3CCOCC3)cc2[N+](=O)[O-])CC1
-13%	O=C(Nc1nnc(-c2ccco2)o1)c1ccc2ccccc2c1
?	O=S(=O)(N/N=C\C=C\c1ccccc1)c1ccc(Br)cc1
-1%	CC1(C)CC[C@]2(C(=O)O)CC[C@]3(C)C(=CCC4[C@@]5(C)CC[C@H](O)C(C)(C)[C@@H]5CC[C@]43C)C2C1 (some centres undefined)
-1%	CC(C)NC(=O)N1CC[C@@]2(CCCN(C(=O)Oc3ccccc3)C2)C1
-8%	COCCCn1c(-c2ccccc2)nc2ccccc2c1=O
-2%&-13%	C[C@H](CO)NC(=O)[C@H](C)[C@H]1C[C@]1(C)[C@H](NC(=O)OCc1ccccc1)c1ccccc1
32µM*	CC(C)CC(=O)NC(=S)NNC(=O)c1ccc([N+](=O)[O-])cc1
-19%	CSc1nnc(C)c(=O)n1COC(=O)c1ccc(S(=O)(=O)N2CCCC2)cc1
-11%	c1ccc(-c2ccc(CN3CCN(c4ncccn4)CC3)cc2)cc1
-27%	O=C(Nc1ccc(F)cc1F)c1cc2ncc(Br)cn2n1

Among those listed so far, these contain a nitro group on carbon:
HPGD inh	Compound
-10%	CC1CCN(c2ccc(C(=O)N3CCOCC3)cc2[N+](=O)[O-])CC1
32µM*	CC(C)CC(=O)NC(=S)NNC(=O)c1ccc([N+](=O)[O-])cc1

Continuation.
HPGD inh	Compound
-11%	CC(C)CNC(=O)COC(=O)/C=C/c1ccco1
-13%	O=C(NCCN1C(=O)C2C3C=CC(C3)C2C1=O)Nc1ccccc1 (centres undefined)
-1%	O=C1c2ccccc2C(=O)N1CC1c2ccccc2CCN1C(=O)N1CCOCC1 (centres undefined)
-15%	Cc1ccc(C(=O)NNC(=O)C(C)Sc2nc(N)cc(N)n2)cc1 (centres undefined)
-3%	O=C(CCc1ccccc1)Nc1nc2nc(-c3ccccc3)cc(=O)n2[nH]1
-5%	COc1ccccc1N1CCN(C(=O)c2sc3nc(-c4ccccc4)cn3c2C)CC1
?	CCNS(=O)(=O)c1ccc2nc(NC(=O)/C=C/c3cc(OC)c(OC)c(OC)c3)sc2c1
-21%	COCc1cc(C)nc2sc(C(=O)Nc3nccs3)c(N)c12
-7%	COC(=O)c1ccc(COC(=O)CCC(=O)c2cccs2)cc1
-8%	CC(C)(CNC(=O)/C=C/c1ccc(F)cc1)CNC(=O)/C=C/c1ccc(F)cc1
-12%	CCOC(=O)c1cc(CC)sc1NC(=O)Cc1ccccc1
-15%	O=C(O)C1CC1C(=O)N1CCN(c2ccc(Cl)c(Cl)c2)CC1 (centres undefined)
-8%	Cc1ccc(S(=O)(=O)Nc2cc3c(C(=O)Nc4ccccc4)c(C)oc3c3ccccc23)cc1
-17%	COc1ccccc1Cc1nnnn1CC(=O)O
-1%	O=C(NCC(=O)N(CCc1ccccc1)C(C(=O)NC1CCCC1)c1cccnc1)c1ccco1 (centres undefined)
-17%	Cc1csc(SCC(=O)c2c(N)n(C)c(=O)n(C)c2=O)n1
-13%	CCSc1cc(N2CCCC2)nc(-c2ccccc2Cl)n1
-7%	COc1ccc(C(=O)NCCN2CCOCC2)cc1OC
-19%	COc1cc2c(cc1NC(=O)CSc1ccccc1)oc1ccccc12
-12%	CC(C)CNS(=O)(=O)c1ccc(CCC(=O)N2CCN(Cc3ccc4c(c3)OCO4)CC2)cc1
?	Cc1ccc(-c2nc(C#N)c(N3CCCCC3)o2)cc1
-13%	CCCCN(C)C(=O)Cn1cnc2sc(C)cc2c1=O
-3%	O=C(NNS(=O)(=O)c1ccc(Cl)cc1)c1sccc1-n1cccc1
-4%	O=C(c1cnccn1)N(Cc1cccs1)C1(C(=O)NC2CCCC2)CCCCC1
-2%	CCOc1ccc(-n2c(SCC(=O)Nc3ccc4c(c3)OCCO4)nc3c(c2=O)SCC3)cc1
?	O=C(CSc1nnc(-c2ccc(Cl)s2)o1)N1CCc2ccccc21
-15%	CN(C)C(=O)CSc1nc2ccccc2n1Cc1ccccc1
-3%	CCOC(=O)C(NC(=O)c1ccccc1)=C(C)C
-29%	Cc1coc2cc3oc(=O)c4c(c3cc12)CCC4
-8%	Cc1cc(=O)n2[nH]c(N)c(N=Nc3ccccc3F)c2n1
-12%	O=C(NCCCN1CCN(c2ccccc2F)CC1)C1CCCN(S(=O)(=O)c2cnc[nH]2)C1 (centres undefined)
?	CCOC(=O)c1[nH]c2ccc(OCC)cc2c1NC(=O)CN1CCCC(C)C1 (centres undefined)
-15%	COc1ccc(-c2nnn(CC(=O)N(Cc3ccccc3Cl)C(C(=O)NCC3CCCO3)c3ccco3)n2)cc1OC (centres undefined)
-12%	COc1ccc(Cc2nc(-c3ccc(NC(=O)c4cccnc4)cc3)no2)cc1
32µM*	CCOC(=O)/C=C1\CC(=O)Nc2nonc2N1
-3%	O=C1C2CC=CCC2C(=O)N1c1n[nH]c(Cc2ccccc2)n1 (centres undefined)
-20%	O=C(Nc1ccc2oc(=O)ccc2c1)c1cccnc1Cl
?	CC(C)(C)c1csc(NC(=O)c2cccs2)n1
-5%	Cn1nccc1C(=O)OCC(=O)Nc1nc(-c2ccccc2)cs1
-8%	CCCn1c(=O)c(C(=O)Nc2c(C)n(C)n(-c3ccccc3)c2=O)c(O)c2ccccc21
-17%	Cc1cc(NC(=O)CSc2nnc3c(C)cc4cc5c(cc4n23)OCO5)no1
-9%	C[C@H]1Cc2c(-c3ccccc3)nc3c(c2CO1)CN(S(=O)(=O)c1ccc2c(c1)OCCN2C)CC3
0%	C[C@H]1Cc2c(COc3ccccc3)nc3c(c2CO1)CN(C(=O)c1cc(I)ccc1F)CC3
-5%	Cn1c(NC(=O)C[n+]2cc(-c3ccccc3)n3c2CCC3)cc(=O)n(C)c1=O
?	Cc1nc2c3c(-c4ccccc4)c(-c4ccccc4)oc3ncn2n1
-4%	Cc1cc(C(=O)CSc2nnc(N)s2)c(C)n1Cc1cccs1
?	CCCCOC(=O)c1ccc(NC(C)=O)cc1
-2%	O=C1CCCC2=C1C(c1ccc(Cl)cc1)C1C(=O)c3ccccc3C1=N2 (centres undefined)
-10%	CC1(C)Cc2ccccc2C(NNC(=O)c2ccccn2)=N1
-15%&-21%	O=C(O)c1cc2cc(Cc3cccnc3)ccc2o1
14µM*	O=C1C(c2ccccc2)SC(=Nc2ccccc2)N1S(=O)(=O)c1ccccc1 (centres undefined)
68%[activator]	CCOc1ccc(-c2n[nH]c(C)c2-c2ccccc2OC)c(O)c1
-8%	COC(=O)C1=C(C(=O)OC)[C@@H]2N(Cc3ccccc3)c3ccccc3[C@@]23C[C@@H](C(=O)OC)N(S(=O)(=O)c2ccc(Br)cc2)C3=N1
-14%	CN(C)c1ccc(C2N(C(=O)N3CCOCC3)CCN2S(=O)(=O)c2ccccc2)cc1 (centres undefined)
-4%	Cc1ccc(Cl)cc1
-2%&-4%&1%&-13%&-8%&-3%	CNCCCC12CCC(c3ccccc31)c1ccccc12

(more compounds)
HPGD inh	Compound
-30%	CCCc1cc(-c2[nH]ncc2-c2ccc3c(c2)OCCCO3)c(O)cc1OC
-7%	CC(OC(=O)C1CCCO1)C(=O)NC1CCCC1 (centres undefined)
-20%	COc1ccc(Br)c(/C=N/NC(=O)COc2ccc(-c3ccccc3)cc2)c1
-13%	O=C(NC1CCCc2ccccc21)C1CCN(S(=O)(=O)c2ccccc2F)CC1 (centres undefined)
-12%	CCCCc1ccc(N=N/C(C(=O)Nc2ccccc2OC)=C(/C)O)cc1
-10%	NN1C(=O)c2cccc3c(C(=O)O)ccc(c23)C1=O
-16%	Cc1ccc2c(C)c(C(=O)Nc3c(C)n(C)n(-c4ccccc4)c3=O)oc2c1
-11%	CC(=O)N1CCc2cc(S(=O)(=O)NC(Cc3ccccc3)C(=O)Nc3cc(C)ccn3)ccc21 (centres undefined)
-3%	C[C@H]1[C@H](C)CC[C@]2(C(=O)O)CC[C@]3(C)C(=CC[C@H]4[C@]3(C)C[C@@H](O)C3[C@](C)(CO)[C@H](O)[C@@H](O)C[C@]34C)[C@H]12 (some centres undefined)
-3%	COCCCn1c(=S)[nH]c2ncccc2c1=O
?	O=C(C1CCC(N2C(=O)C3CC=CCC3C2=O)CC1)N1CCCCC1 (centres undefined)
-11%	CCOC(=O)C1=C(C)NC(=O)NC1c1ccc(OCC(=O)N2CCCCC2)cc1 (centres undefined)
?	COC(=O)c1c(NC(=O)c2ccc(C)cc2)sc(Cc2ccccc2)c1C
-21%	Cc1cccc2cc(COC(=O)C3CCCO3)c(=O)[nH]c12 (centres undefined)
-8%	CC(C)C(=O)Nc1cccc(NC(=S)NC(=O)c2ccc(Cl)cc2)c1
-5%	CCC1(C)Cc2c(sc3nnn(Cc4ccccc4Cl)c(=O)c23)CO1 (centres undefined)
-12%	COC(=O)CNC(=O)C(C)(C)Oc1ccc(Cl)cc1
-2%	COc1ccc(C2N(C(=O)N3CCOCC3)CCN2S(=O)(=O)c2ccc(C)cc2)cc1 (centres undefined)
?	COC(=O)c1cc2c(ccn2-c2ccc(F)cc2)n1CC(=O)N1CCN(C(=O)c2ccco2)CC1
2%	O=C(CSc1nnnn1-c1ccccc1)NCc1cccs1
-7%	O=C(CC(c1ccccc1)c1ccco1)Nc1nccs1 (centres undefined)

Laid out differently: results already given.
COC(=O)CNC(=O)C(C)(C)Oc1ccc(Cl)cc1
  HPGD inh: -12%

COc1ccc(C2N(C(=O)N3CCOCC3)CCN2S(=O)(=O)c2ccc(C)cc2)cc1 (centres undefined)
  HPGD inh: -2%

Molecules above that have an aryl thioether with sulfur outside any ring:
HPGD inh	Compound
-14%	COc1cccc(-c2nnc(SC(C(=O)c3c[nH]c4ccccc34)c3ccccc3)n2C)c1 (centres undefined)
-6%	CCOC(=O)Cc1nnc(NC(=O)CSc2nncn2C)s1
-8%	Cc1cc(NS(=O)(=O)c2ccc(NC(=O)CSc3nnc(-c4ccco4)n3Cc3ccco3)cc2)nc(C)n1
-6%	C=C(C)CSc1nc(C)c(Cc2ccccc2)c(=O)[nH]1
-11%	COC(=O)c1ccc(CSc2nc(N)cc(N)n2)cc1
16µM*	COc1cccc(NC(=O)CSc2nc3c(oc4ccccc43)c(=O)[nH]2)c1
-19%	CSc1nnc(C)c(=O)n1COC(=O)c1ccc(S(=O)(=O)N2CCCC2)cc1
-15%	Cc1ccc(C(=O)NNC(=O)C(C)Sc2nc(N)cc(N)n2)cc1 (centres undefined)
-17%	Cc1csc(SCC(=O)c2c(N)n(C)c(=O)n(C)c2=O)n1
-13%	CCSc1cc(N2CCCC2)nc(-c2ccccc2Cl)n1
-19%	COc1cc2c(cc1NC(=O)CSc1ccccc1)oc1ccccc12
-2%	CCOc1ccc(-n2c(SCC(=O)Nc3ccc4c(c3)OCCO4)nc3c(c2=O)SCC3)cc1
?	O=C(CSc1nnc(-c2ccc(Cl)s2)o1)N1CCc2ccccc21
-15%	CN(C)C(=O)CSc1nc2ccccc2n1Cc1ccccc1
-17%	Cc1cc(NC(=O)CSc2nnc3c(C)cc4cc5c(cc4n23)OCO5)no1
-4%	Cc1cc(C(=O)CSc2nnc(N)s2)c(C)n1Cc1cccs1
2%	O=C(CSc1nnnn1-c1ccccc1)NCc1cccs1

Screening data as filed in PubChem.

A portion of the library, so the mix of outcomes need not match the whole.
